D2 ag: human D2 receptor agonism in beta-arrestin assay | DiscoveRx PathHunter D2 beta-arrestin, luminescence, 90 min; 100% = 57 uM dopamine signal | P14416 | activation, % (test concentration not listed) | 0.084% of 360,000 active; in the data active = activation above about 40%; inconclusive = about 15% to 40%; inactive = below about 15%; further: compound concentration not given in the record; the text of the record calls up to 30% inactive
Target sequence (P14416 whole entry, looked up): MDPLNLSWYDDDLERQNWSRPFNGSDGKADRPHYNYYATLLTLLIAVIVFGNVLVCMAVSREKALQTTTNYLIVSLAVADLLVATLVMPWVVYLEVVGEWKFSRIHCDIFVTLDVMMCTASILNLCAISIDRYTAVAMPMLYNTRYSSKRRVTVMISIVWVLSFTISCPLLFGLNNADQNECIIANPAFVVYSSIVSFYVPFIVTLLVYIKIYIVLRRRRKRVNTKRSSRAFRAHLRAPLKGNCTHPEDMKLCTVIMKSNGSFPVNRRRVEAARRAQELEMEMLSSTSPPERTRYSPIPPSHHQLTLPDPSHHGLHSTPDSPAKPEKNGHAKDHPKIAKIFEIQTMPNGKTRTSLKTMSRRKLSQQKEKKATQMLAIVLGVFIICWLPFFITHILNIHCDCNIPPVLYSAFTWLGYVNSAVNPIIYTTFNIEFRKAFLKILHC
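Agonist mode: compounds alone added to overnight-plated D2 PathHunter cells for 90 min at 37 C, with 57 uM final dopamine (EC100) defining full response. Beta-arrestin recruitment detected by chemiluminescent reagent, read after 1 h at ambient temperature.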
gsp ag: activates gsp, the McCune-Albright syndrome mutation; AID 624287; 0.13% of 340,000 active; Potency, µM (doses to about 76.9 µM), for the others: top-dose activation (cAMP increase), actives largely listed as activators; gsp mutant cells, cAMP HTRF, 30 min; control for the full effect not named in the record; active = well fitted activation curve with a large enough effect; inconclusive = small, poorly fitted or top-dose-only effect, or another doubt; inactive = no such curve, though single readings can be large or run the other way; cell line not stated here;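 further: phosphodiesterase inhibitor Ro 20-1724 added with compounds to block cAMP breakdown; potency means the concentration at half of the fitted maximal effect; nearly all actives have a fitted effect of over 60% in size; about a fifth of the inactives were tested at one dose only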
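Cells in DMEM/10% FBS with G418 were pretreated with compounds in DMSO plus […] (300 uM stock) for 30 min at 37C. cAMP was measured by HTRF (cAMP-d2 plus anti-cAMP antibody-K) after 30 min at room temperature.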
gsp antag: antagonists of gsp mutant (McCune-Albright syndrome); gsp-mutant cells, cAMP HTRF, 30 min; control for the full effect not named in the record; Potency, µM (titrated, usually from 76.9 µM), inactives show top-dose activity change, negative = inhibition, hits mostly inhibitors; 0.4% of 340,000 active; AID 624288; active = falling curve of any shape with a large fitted effect; inconclusive = falling curve, mostly with a smaller effect; inactive = flat or rising curve; cell line not stated here;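 further: intracellular cAMP measured with PDE inhibitor Ro 20-1724 present during compound exposure; potency means the concentration at half of the fitted maximal effect; on the % scale 0 is the no-effect control and ±100 the full control effect; nearly all actives have a fitted effect of over 65% in size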
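Cells in G418 medium, seeded 16-24 h, 37C; buffer exchange to DPBS + 1 mM CaCl2, 0.5 mM MgCl2, 0.05% BSA; cpds in DMSO + […] (300 uM stock), 30 min 37C; HTRF cAMP detection.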
D2 PAM: potentiates the human D2 dopamine receptor allosterically; DiscoveRx D2 beta-arrestin cells, luminescence, 90 min; 100% = 57 uM dopamine signal; potentiation, % (test concentration not listed); 0.23% of 360,000 active; AID 624464; active = potentiation of 50% or more; inconclusive = 30% to 50%; inactive = 30% or less;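 further: compound concentration not given in the record; tested on top of an EC20 dose of dopamine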
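D2 cells co-treated with compound plus 50 nM dopamine (EC20) for 90 min at 37 deg C to detect potentiation. Beta-arrestin recruitment was read as enzyme-fragment luminescence after 1 h at ambient temperature. Full response was set by 57 uM dopamine.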
CtBP-E1A blk: CtBP/E1A binding inhibition; AlphaScreen GST-E1A/His-CtBP binding, 1536-well; active compounds read low; control for the full effect not named in the record; activity change, % (concentration not given with the values); 0.49% of 340,000 active; in the data active means activity change below about -65%; inconclusive means about -30% to -65%; inactive means above about -30%; further: on the % scale 0 is the no-effect control and ±100 the full control effect
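GST-E1A and His-tagged CtBP (125 nM each as 5X stock) were preincubated with pin-transferred compound for 2 h at 37 °C in the dark, then glutathione donor and nickel acceptor beads were added for 1 h before AlphaScreen reading.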
Six1-Eya2 inh: inhibitors of human Six1/Eya2 interaction | AlphaScreen GST-Six1/His-Eya2 binding, biochemical; active compounds read low; control for the full effect not named in the record | activity change, % (test concentration not listed) | 0.56% of 360,000 active; in the data active = activity change below about -65%; inconclusive = about -30% to -65%; inactive = above about -30%; further: on the % scale 0 is the no-effect control and ±100 the full control effect
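AlphaScreen luminescence read after one hour at 37 °C in darkness. Pin-transferred compounds met GST-Six1 and His-Eya2 protein (5X stock 250 nM/500 nM) plus glutathione donor and Ni-chelate acceptor beads (5X, 50 ug/mL).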
* marks the source's active call; other numbers are inactive results; u = inconclusive; x = not tested or not shown; [ ] = remark or other dose.

Structure	D2 ag	gsp ag	gsp antag	D2 PAM	CtBP-E1A blk	Six1-Eya2 inh
CCN(CC(=O)Nc1cc(Cl)ccc1C)C(=O)CSCc1ccc(C)cc1	1.7	-4%	-8%	-21	-14	2
Cc1ccc(NC(=O)NCCCN2CCCC2=O)cc1Cl	-4.0	-2%	-16%	-27	2	3
Cn1nc(C(=O)NC2CCC(O)CC2)c2ccccc2c1=O (stereo not drawn)	0.8	-18%	0%	-2	0	2
CCCN(CCC)c1nc(N)c(C#N)c(CC#N)c1C#N	-1.9	-4%	20%	8	-4	-3
C[C@@H]1CN([C@@H](C)CO)C(=O)c2cc(C#CCN(C)C)cnc2O[C@H]1CN(C)Cc1ccc2c(c1)OCO2	-10.0	16%	x	3	5	1
CCOc1ccc2ccccc2c1/C=N/NC(=O)CNC(=O)C(c1ccccc1)c1ccccc1	-0.9	0%	-16%	-8	x	-10
CCOC(=O)c1[nH]c(C)c(C(=O)NCCCOC(C)C)c1C	0.8	-36%	1%	-15	5	1
Cc1cc(OCC(=O)O)c2cccc(C)c2n1	-1.9	-7%	-10%	-7	9	0
O=C(CN(c1ccc(F)cc1)S(=O)(=O)c1ccccc1)NCc1ccco1	-2.0	-19%	-3%[15.4 µM]	-4	-2	-7
CC1CC(C)CN(C(=O)COc2ccc(-c3nnco3)cc2)C1 (stereo not drawn)	-2.1	22%	-8%	-25	5	-1
CCN1CCC(NC(=O)Nc2ccc(F)cc2F)CC1	-7.4	-10%[15.4 µM]	15%	-7	-4	-6
CC(C)Cc1cc(C(=O)O)n[nH]1	1.8	18%	6%	13	1	3
CC(C)CC(=O)Nc1ccc(C(=O)NNC(=O)C(c2ccccc2)c2ccccc2)cc1	-4.3	-28%	10%	-4	9	8
CCOC(=O)Cc1csc(NC(=S)NC(=O)c2cc(OC)cc(OC)c2)n1	-7.5	-29%	-11%	-12	2	-4
COC(=O)c1ccc(Cn2cc(Cl)cn2)cc1	-1.9	16%	-4%	-17	0	11
COc1cc(C(c2oc(CO)cc(=O)c2O)c2oc(CO)cc(=O)c2O)cc(OC)c1OC	3.5	0%	6%	-8	x	-7
CCOc1ccc(NC(=S)N(CCc2c(C)[nH]c3ccccc23)Cc2ccco2)cc1	-0.5	-27%	-6%	-5	-23	-23
CCCCCCCOC(=O)C1=C(C)Nc2ncnn2C1c1cccs1 (stereo not drawn)	-2.2	8%	u	7	1	1
Cc1cc(N2CCOCC2)nc(N)n1	-2.2	7%[15.4 µM]	6%	-3	-18	1
O=C(O)Cc1ccc(NCc2ccccc2Cl)cc1	-3.2	-3%[15.4 µM]	4%	-4	-5	-15
COc1ccc(OCC(=O)N2CCN(C(=O)c3cccc(F)c3)CC2)cc1	-2.3	4%	-2%	-7	5	1
O=C(/C=C/c1ccc([N+](=O)[O-])cc1)OCC(=O)N1CCCCCC1	3.1	-11%[15.4 µM]	12%	-15	-72*	-10
O=C(CCCN1C(=O)c2cccc3cccc(c23)C1=O)Nc1nccs1	-2.8	5%	7%	-2	9	-1
CC(C)C[C@H](NC(=O)c1[nH]cnc1C(=O)N[C@@H](C)c1ccccc1)C(=O)OCc1ccccc1	-7.2	-4%	-8%	-4	x	-13
Cc1cc(CO)nn1-c1ccc([N+](=O)[O-])cc1	3.0	2%	-4%	2	-4	16
COc1cccc(NC(=O)C2(C)CCN2Cc2ccccc2Cl)c1 (stereo not drawn)	-5.7	x	x	-7	2	-8
CCNC(=O)NC(=O)CSc1ccc(S(=O)(=O)N2CCOCC2)cn1	1.5	20%	1%	-1	4	-1
Cc1ccc(/C=C/C(=O)Nc2ccc(O)c3c(=O)cc(-c4ccccc4Cl)oc23)cc1	1.0	-29%	-1%	2	-7	-6
CC1=C(C(=O)Nc2cc(C)ccn2)C(c2cnn(C)c2)C2=C(CC(c3ccccc3)CC2=O)N1 (stereo not drawn)	-1.5	-33%[inhibitor]	7%	-9	-1	1
Nc1nc(CCOc2ccc(F)cc2)cs1	-2.1	-14%[15.4 µM]	11%	-5	-11	-3
C[n+]1nc(Nc2ccccc2)sc1-c1ccc(O)cc1	-0.8	28%	-5%	-7	-12	8
OC1CCN(Cc2cccc3ccccc23)CC1	-7.7	11%	-3%	-8	x	-2
N#Cc1cccc(NC(=O)CC2CCCC2)c1	-9.0	-10%	2%	-9	4	11
O=C(Nc1cccc(-c2ccc(N3CCOCC3)nn2)c1)c1ccccc1Cl	0.5	4%	0%	1	-1	-13
CC(CC(=O)Nc1ccc(-c2ccno2)cc1)n1cccn1 (stereo not drawn)	1.1	-22%	9%	-6	x	0
CCNC(=O)C1(C)CCCN(C(=O)c2ccc3ccccc3n2)C1 (stereo not drawn)	-6.9	x	x	-11	-8	0
CCOCCCNC(=O)C(Cc1ccccc1)NS(=O)(=O)c1ccc2c(c1)c(=O)n(C)c(=O)n2C (stereo not drawn)	2.3	u	4%	-4	-2	2
CC[C@@H]1C=C(C(=O)O)[C@H](c2ccc(Cl)cc2)N1S(=O)(=O)c1ccc(C)cc1	1.0	x	-11%	x	0	4
COc1cc(-c2ccc(=O)[nH]n2)ccc1OC(F)F	-4.9	x	4%	-7	-4	0
COc1ccc(C(=O)CN(Cc2ccccc2)C2=NCCS2)cc1	-4.6	7%[15.4 µM]	11%	-14	4	9
N#C/C(=C\c1cccnc1)c1nc2ccccc2[nH]1	3.3	-46%[15.4 µM]	-17%	1	10	13
O=C(Cc1coc(-c2ccc(F)cc2)n1)NC1CCCCC1	0.9	18%	-2%	-5	23	3
Cc1cc2c(cc1S(=O)(=O)N1CCN(c3ccccc3F)CC1)OCC(=O)N2	-0.5	-4%[15.4 µM]	9%	1	4	-3
COc1ccc(NC(=O)c2c(C)nn(Cc3ccccc3)c2Cl)cc1S(=O)(=O)N1CCOCC1	-4.3	-14%	-14%	-1	-17	-8
COc1cc(CN2CCC(n3nccc3NC(=O)CCCc3ccccc3)CC2)ccc1O	-7.3	u	6%	-32	5	0
O=C(CCSc1nc(-c2ccco2)cc(C(F)(F)F)n1)N1CCN(c2ccccc2)CC1	-3.3	1%	3%[15.4 µM]	-9	-7	-24
Cc1cc(Nc2ccccc2)n(CCC#N)n1	-2.0	6%	-4%	-4	6	-2
CC1(C)Cc2c(sc3nc4n(-c5ccccc5)cnn4c(=O)c23)CO1	-0.6	7%[15.4 µM]	1%	-9	0	-9
CCOC(=O)CC1C(=O)NCCN1S(=O)(=O)c1ccccc1 (stereo not drawn)	1.6	u	2%	0	0	4
Cc1nn2c(C)c(C(=O)Nc3ccccc3)cnc2c1C#N	0.4	2%	5%	16	-8	0

Next section.
Structure	D2 ag	gsp ag	gsp antag	D2 PAM	CtBP-E1A blk	Six1-Eya2 inh
O=C(COC(=O)c1cccc(-n2cnnn2)c1)c1ccc(F)c(F)c1	-1.2	-34%[inhibitor]	x	-9	8	3
COc1ccc(/C=N/NC(=O)c2cccc(NC(C)=O)c2)c(C(=O)O)c1OC	1.6	-19%	10%	-5	-8	-3
Cc1ccc([C@H]2C[C@@H](O)[C@H](n3cc(-c4ccc(F)cc4)nn3)CN2Cc2cccs2)cc1	-9.7	-7%	x	0	1	0
O=C(O)CCC(=O)Nc1ccccc1C(=O)NC1CCCCC1	3.3	-1%	-3%	-4	3	3
O=C(O)c1cnn2c1NC(c1ccc(F)cc1)CC2C(F)(F)F (stereo not drawn)	-0.4	-22%	-10%	-13	1	1
Cc1cc(Cl)ccc1NC(=O)CCCN1C(=O)CCC1=O	-0.9	-22%	2%	-6	2	2
CCN(CC)CCCNC1CCS(=O)(=O)C1 (stereo not drawn)	-3.9	-21%	12%	-16	0	0
CCOc1ccc(N2C(=O)C(CC(=O)Nc3ccccc3)N(Cc3ccccn3)C2=S)cc1 (stereo not drawn)	7.1	u	-4%	-6	-21	-15
CCOC1=NC(=C(c2ccccc2)c2ccccc2)OC1=O	-4.9	14%	-5%	-4	-8	2
CCCCCCCCNS(=O)(=O)CCNC1CCCCC1	-2.8	x	5%	-17	4	6
O=C(CN1C(=O)CSC1=O)Nc1ccc(N2CCOCC2)cc1	-1.3	-18%	-9%	14	5	-1
CC(=O)c1cccc(NC(=O)c2ccc(OC3CSC3)cc2)c1	0.6	28%	1%	-8	-13	2
Cc1ccc(C)c(N2CCN(S(=O)(=O)c3c(C)noc3/C=C/N(C)C)CC2)c1	-5.2	16%	-13%	-8	-5	-14
OCCN1CCN(c2cc(-c3ccc4ccccc4c3)nc3ccnn23)CC1	-7.9	x	x	-17	1	5
CC(C)(C)c1ccc(C(=O)N2CCN(c3nc4ccccc4o3)CC2)cc1	-0.9	-34%[inhibitor]	0%	0	0	0
Cc1cc2cc(CNC(=O)c3cccs3)ccc2[nH]1	3.2	-45%	-9%	-7	-4	-18
CC(=O)c1ccc(OCC(=O)Nc2c(C)nn(-c3ccccc3)c2C)cc1	-5.8	3%	-4%	-11	-1	-15
C[C@H](N)C(=O)NC[C@H]1O[C@@H](n2cnc3c(N)ncnc32)[C@H](O)[C@@H]1O	-2.8	x	1%	1	2	2
N=c1c(C(=O)NCc2ccccc2)cc2c(=O)n3ccccc3nc2n1CCCN1CCOCC1	-2.4	-8%	11%	-6	-1	-2
Cc1ccc(SCC(=O)OC(C)C(=O)N2CCc3ccccc32)cc1 (stereo not drawn)	-3.8	-17%	0%	13	0	26

CtBP-E1A blk, entries above that show a hit.
compound,D2 ag,gsp ag,D2 PAM,CtBP-E1A blk,Six1-Eya2 inh
O=C(/C=C/c1ccc([N+](=O)[O-])cc1)OCC(=O)N1CCCCCC1,3.1,-11%[15.4 µM],-15,-72*,-10

Going on with the list:
Structure	D2 ag	gsp ag	gsp antag	D2 PAM	CtBP-E1A blk	Six1-Eya2 inh
CC12CC(c3ccccc3O1)N(C(=O)c1ccco1)C(=S)N2c1ccc(F)cc1 (stereo not drawn)	-2.2	-18%	5%	-17	-11	-15
C[C@@H]1CN([C@@H](C)CO)C(=O)c2cc(Br)cnc2O[C@@H]1CN(C)C(=O)C1CCCCC1	-8.4	25%	x	1	6	6
COc1ccc(NC(=S)N2CCN(C(c3ccccc3)c3ccccc3)CC2)c(OC)c1	-0.4	0%[15.4 µM]	-20%	-7	4	-20
O=C1c2ccccc2C(=O)N1CCCCSc1nnnn1-c1ccccc1	-2.6	-46%[inhibitor]	-5%	5	8	12
CCN(CC(=O)Nc1c(F)cccc1F)C(=O)c1ccc2c(c1)C(=O)N(c1ccccc1C)C2=O	-1.6	28%	x	-9	4	-4
COCCNC(=O)C1CCN(S(=O)(=O)c2ccccc2)CC1	-1.5	27%	2%	3	3	0
O=C(Nc1ccccc1N1CCCC1)c1cccc(F)c1	1.5	-18%	-3%	0	-1	-4

Screening data (PubChem)
